Assay outcomes (PubChem)
rRNA inh HTS: reduced GFP signal of wild-type E. coli, primary screen, bacterial rRNA inhibitor project, GFP/RFP fluorescence, OD600, single point; E. coli WT GFP vs humanized-ribosome RFP mutants, 24 h; active compounds read low; DMSO median 0, no signal -100; GFP signal change (wild-type ribosome), % (test concentration not listed); hit rate 1.6% among 350,000;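 active means significant combined selectivity score with lowered wild-type GFP, culture density cut under 30%, mutant RFP and density less affected; inactive means any of these conditions unmet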; further: one replicate is shown; some compounds called inactive have numbers as strong as hits
AF4-AF9 inh: inhibitors of AF4 peptide binding to AF9, primary screen, biochemical, AlphaScreen, biotin-AF4 peptide, FLAG-AF9, single point. Protein AF-9 (Homo sapiens), P42568. inhibition, % at 10 µM. hit rate 0.47% among 350,000. AID 651704, 2012;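 active means every replicate reaching a set inhibition limit, whatever the replicate mean, cut at about 25% in these data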;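 further: 0% = plate neutral control median and 100% = total signal loss; the record names both 10 and 1 µM as test concentration; the first replicate is given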
Target sequence (P42568 whole entry, looked up): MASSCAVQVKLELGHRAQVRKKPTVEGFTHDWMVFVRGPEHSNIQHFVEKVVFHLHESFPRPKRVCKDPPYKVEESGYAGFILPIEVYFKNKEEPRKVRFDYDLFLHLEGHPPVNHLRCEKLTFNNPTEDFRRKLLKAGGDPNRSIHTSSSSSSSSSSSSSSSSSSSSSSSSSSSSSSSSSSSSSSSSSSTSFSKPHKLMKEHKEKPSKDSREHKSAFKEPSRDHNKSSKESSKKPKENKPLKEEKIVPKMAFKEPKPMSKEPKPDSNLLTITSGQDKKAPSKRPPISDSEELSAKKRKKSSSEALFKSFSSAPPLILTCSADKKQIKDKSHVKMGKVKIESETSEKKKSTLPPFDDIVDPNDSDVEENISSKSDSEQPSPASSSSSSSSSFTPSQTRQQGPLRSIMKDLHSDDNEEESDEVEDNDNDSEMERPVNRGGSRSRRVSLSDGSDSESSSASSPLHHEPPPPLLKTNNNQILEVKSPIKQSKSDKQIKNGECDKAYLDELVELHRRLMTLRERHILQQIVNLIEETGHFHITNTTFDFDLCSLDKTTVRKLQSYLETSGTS
rRNA inh HTS OD600: second read-out of rRNA inh HTS, no call of its own (marks repeat the call); OD600 change, %; measured here: OD600 growth;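 optical density of the mix in the first replicate; 0 = DMSO median and -100 = no signal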
rRNA inh HTS RFP: also measured in rRNA inh HTS; calls as there; RFP signal change, %; measured here: RFP humanized mutant strains;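 first replicate; 0 = DMSO median and -100 = no signal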
Numbers without * were called inactive; & = joins results of further samples. Only part of the results is shown (hit frequency here may not be typical).

structure	rRNA inh HTS	rRNA inh HTS OD600	rRNA inh HTS RFP	AF4-AF9 inh
COc1ccc(S(=O)(=O)Nc2ccc3c(c2)C(=O)N([C@@H](C)CO)C[C@H](C)[C@H](CN(C)C(=O)Nc2c(C)noc2C)OCCCC[C@@H](C)O3)cc1	2.1	1.9	5.5	0.5
C[C@@H]1CN([C@H](C)CO)C(=O)c2cccc(NC(=O)Nc3ccc4c(c3)OCO4)c2O[C@@H]1CN(C)S(=O)(=O)c1cccs1	0.4	1.6	-0.8	4.1
C[C@H](CO)N1C[C@H](C)[C@H](CN(C)S(=O)(=O)c2ccc(F)cc2)Oc2ccc(NC(=O)Nc3ccccc3)cc2CC1=O	0.0	-4.3	2.0	0.6
C[C@H]1CN([C@@H](C)CO)C(=O)c2cc(NS(=O)(=O)c3ccc(F)cc3)ccc2O[C@H]1CN(C)S(=O)(=O)c1ccc(Cl)cc1	2.8	4.8	0.6	-0.4
CC1(C(=O)Nc2ccc(F)cc2F)CCN1C(=O)Cc1ccccc1 (configuration not stated)	1.5	-8.4	4.9	-7.6
CC(C)CC#Cc1ccc2c(c1)O[C@@H](CN(C)C(=O)c1ccccn1)[C@@H](C)CN([C@H](C)CO)S2(=O)=O	-1.6	-7.6	0.0	2.7
CC(C)C#Cc1ccc2c(c1)O[C@@H](CN(C)C(=O)c1cccc(F)c1)[C@@H](C)CN([C@H](C)CO)S2(=O)=O	-0.3	0.0	-4.5	-11.4
C[C@H]1CN([C@@H](C)CO)C(=O)Cc2cc(NC(=O)CCCN(C)C)ccc2O[C@@H]1CN(C)S(C)(=O)=O	6.7	7.4	-0.7	-2.6
CCC(=O)Nc1ccc2c(c1)C(=O)N(C)[C@H]1CC[C@@H](CC(=O)NCCCN(C)C)O[C@@H]1CO2	2.4	3.3	-0.2	-1.4
C[C@@H]1CN([C@@H](C)CO)S(=O)(=O)c2ccc(C3=CCCCC3)cc2O[C@@H]1CN(C)Cc1cncnc1	4.4	-5.7	-0.7	-1.1
COc1ccc([C@H]2C[C@@H](O)C[C@@H](CCn3cc(-c4ccccc4)nn3)O2)cc1	-12.4	-1.8	9.6	-0.8
CN1c2ccc(Br)cc2[C@H]2[C@H](CCN2S(=O)(=O)c2ccc(F)cc2)[C@H]1CO	-51.5	-72.7	-16.4	-0.3

structure	rRNA inh HTS	rRNA inh HTS OD600	rRNA inh HTS RFP	AF4-AF9 inh
Cc1ccc(S(=O)(=O)N[C@@H]2CC[C@H](CCNC(=O)C3CCC3)O[C@H]2CO)cc1	4.3	1.7	-0.1	-2.6
CC(=O)N(C)C[C@H]1Oc2cc(-c3ccc(F)cc3)ccc2S(=O)(=O)N([C@H](C)CO)C[C@H]1C	-5.7	-6.1	1.7	-1.6
COCC(=O)Nc1ccc2c(c1)OC[C@@H](C)N(Cc1ccncc1)C[C@@H](C)[C@H](OC)CN(C)C2=O	1.1	1.9	-1.9	-1.3
C[C@@H]1CCCCO[C@H](CN(C)S(=O)(=O)c2cn(C)cn2)[C@@H](C)CN([C@H](C)CO)C(=O)c2cc(NC(=O)Nc3cccc4ccccc34)ccc2O1	-0.4	-0.8	1.0	4.1
C[C@H](CO)N1C[C@H](C)[C@H](CN(C)C(=O)c2ccc(F)cc2)OCc2ccccc2-c2c(n(C)c3ccccc23)C1=O	-10.9	-24.8	22.1	0.3
Cc1noc(C)c1S(=O)(=O)Nc1cccc2c1O[C@@H](CN(C)S(=O)(=O)c1cccs1)[C@@H](C)CN([C@H](C)CO)C2=O	2.4	6.8	2.0	-0.4
O=C(CC[C@H]1O[C@@H](n2cnc3c(NC(=O)c4ccccc4)ncnc32)[C@H](O)[C@@H]1O)N[C@@H](CO)c1ccccc1	8.1	10.0	3.7	-0.5
COc1ccc(NC(=O)N(C)C[C@@H]2Oc3ccc(NC(=O)Nc4ccc(F)cc4)cc3C(=O)N([C@H](C)CO)C[C@@H]2C)cc1	-3.8	-7.1	-0.5	1.1
CO[C@H]1CN(C)C(=O)c2ccc(NC(=O)C3CCCCC3)cc2OC[C@H](C)N(Cc2cccnc2)C[C@H]1C	-4.3	-2.3	2.1	0.1
C[C@H]1CN([C@@H](C)CO)C(=O)c2cc(C#CC3CCCCC3)cnc2O[C@H]1CN(C)S(=O)(=O)c1ccccc1	-3.6	-6.1	1.5	0.2
Cc1cccc(C)c1NC(=S)NC(=O)c1cccc(Cl)c1	0.9	2.8	-5.2	-5.8
C[C@@H]1CN([C@@H](C)CO)C(=O)c2cc(NS(=O)(=O)c3ccccc3)ccc2O[C@@H](C)CCCCO[C@@H]1CN(C)C(=O)Cc1ccccc1	-2.6	-10.7	-0.9	1.6

structure	rRNA inh HTS	rRNA inh HTS OD600	rRNA inh HTS RFP	AF4-AF9 inh
CC(C)NC(=O)N(C)C[C@H]1Oc2c(NC(=O)c3cnccn3)cccc2C(=O)N([C@@H](C)CO)C[C@H]1C	7.7	6.7	-1.7	-5.0
CCN1[C@@H]2Cn3c(ccc(-c4cccc(F)c4)c3=O)[C@H]1[C@@H](C(=O)N(C)C)[C@@H]2CO	7.7	3.2	0.0	-1.6
CCNC(=O)C[C@H]1CC[C@@H]2[C@@H](COc3ccc(NC(=O)Nc4ccccc4Cl)cc3C(=O)N2C)O1	-3.9	-4.4	3.6	0.0
O=C(C[C@H]1C[C@H]2c3cc(NS(=O)(=O)c4ccc(F)cc4)ccc3O[C@H]2[C@H](CO)O1)NCc1ccccc1	0.5	-27.9	33.4	-0.3
C[C@H]1CN([C@@H](C)CO)C(=O)CCCn2cc(nn2)CO[C@@H]1CN(C)C(=O)OCc1ccccc1	-3.0&7.8	3.0&14.6	-0.5&-7.7	1.4&2.3
CCCC#Cc1cnc2c(c1)C(=O)N([C@H](C)CO)C[C@H](C)[C@H](CN(C)C(=O)c1ccc3c(c1)OCO3)O2	-1.4	3.6	2.0	-1.8
CCN(C(=O)c1c([N+](=O)[O-])cnn1C)c1ccccc1	21.2	20.5	1.8	-0.8
CCCCCCN1C[C@H](n2cc(C3CC3)nn2)[C@@H](O)C[C@@H]1c1ccc(OC)cc1	-6.2	-33.1	11.4	-1.1
COc1ccccc1-c1ccc2c(c1)O[C@H](CN(C)Cc1ccc3c(c1)OCO3)[C@H](C)CN([C@H](C)CO)S2(=O)=O	-3.2	-6.5	7.3	5.7
C[C@@H]1CCCCO[C@H](CN(C)C(=O)NC2CCCCC2)[C@@H](C)CN([C@H](C)CO)C(=O)c2cc(NC(=O)C3CCCCC3)ccc2O1	1.8	1.0	-0.6	0.8
N#C[C@@H]1[C@H](c2ccc(C#CC3CCCCC3)cc2)[C@@H](CO)N1C(=O)c1cccc(F)c1	-4.1	-17.1	21.7	-11.4
O=C(C[C@@H]1C=C[C@@H](NS(=O)(=O)c2ccccc2)[C@@H](CO)O1)N1CCc2ccccc2C1	-2.3	-0.9	-1.9	-4.0

structure	rRNA inh HTS	rRNA inh HTS OD600	rRNA inh HTS RFP	AF4-AF9 inh
COc1ccc2c3c(n(C)c2c1)[C@H](CO)N(S(=O)(=O)c1ccc(C)cc1)CC31CCN(C(=O)c2ccccn2)CC1	-3.2	-3.7	4.0	-1.4
C/C=C/c1ccc([C@@H]2[C@@H](CO)N(C(=O)CN(C)C)C23CN(C(=O)C2CCCC2)C3)cc1	1.4	-2.2	2.4	4.6
CCCCOCCCNC(=O)C[C@H]1C[C@@]2(C(=O)OC)C(=C[C@H](C(C)C)O[C@@H]2C2CC2)N(Cc2ccccc2)C1=O	-9.3	-12.7	1.8	3.1
Cc1ccc(-c2cnc3c(c2)C(=O)N([C@@H](C)CO)C[C@@H](C)[C@@H](CN(C)C(=O)Cc2cccnc2)O3)cc1	0.7	-0.6	-2.5	-3.0
CC(C)CC#Cc1cnc2c(c1)C(=O)N([C@H](C)CO)C[C@@H](C)[C@@H](CN(C)Cc1ccccc1)O2	2.5	-8.0	-0.1	-1.1
C[C@H](CO)N1C[C@H](C)[C@H](CN(C)C(=O)Nc2ccc(C(F)(F)F)cc2)Oc2ccc(NC(=O)CCN3CCOCC3)cc2CC1=O	2.1	-1.2	-0.3	4.2
CN1CCN(C(=O)C[C@@H]2CC[C@H]3[C@H](COc4ccc(NC(=O)c5cscn5)cc4C(=O)N3C)O2)CC1	2.3	6.6	3.6	-1.6
COc1c2c(c(OC)c3ccccc13)[C@]1(OC2)O[C@H](CCO)C[C@H](O)[C@H]1O	17.6	12.1	3.5	1.5
COc1ccc(S(=O)(=O)N(C)C[C@H]2Oc3c(NC(=O)c4ccc(-c5nccs5)cc4)cccc3C(=O)N([C@@H](C)CO)C[C@H]2C)cc1	-0.6	3.3	-0.2	0.2
COc1ccccc1C(=O)Nc1ccc2c(c1)C(=O)N(C)C[C@H](OC)[C@@H](C)CN(C)[C@@H](C)CO2	1.2	1.5	-2.0	0.0
CCC(=O)N1C[C@@H](C)[C@@H](OC)CN(C)C(=O)c2ccc(NC(=O)c3ccc(F)cc3)cc2OC[C@@H]1C	-1.4	-3.4	-0.7	-0.7
Cc1noc(C)c1S(=O)(=O)Nc1cccc2c1O[C@H](CN(C)Cc1ccc(C(=O)O)cc1)[C@@H](C)CN([C@@H](C)CO)C2=O	-0.2	3.5	0.2	-2.5

structure	rRNA inh HTS	rRNA inh HTS OD600	rRNA inh HTS RFP	AF4-AF9 inh
COc1ccccc1-c1ccc([C@@H]2[C@@H](C#N)N(C(=O)C3CCC3)[C@@H]2CO)cc1	0.6	-2.5	-1.4	0.3
O=C(c1cccc(F)c1)N1CCCCN2[C@@H](CO)[C@H](c3ccc(-c4ccncc4)cc3)[C@@H]2C1	-0.2	2.3	-0.5	-1.0
CC1(C(=O)O)CCCN(C(=O)c2ccc(F)cc2Cl)C1 (configuration not stated)	7.7	3.0	1.0	-1.2
CC(C)c1cn(CC[C@@H]2CC[C@H](NS(=O)(=O)c3ccccc3)[C@@H](CO)O2)nn1	2.3	1.8	-0.8	-3.5
C[C@@H]1CN([C@H](C)CO)C(=O)c2cccc(NS(=O)(=O)c3ccc(F)cc3)c2O[C@@H]1CN(C)Cc1ccc(C(F)(F)F)cc1	-0.8	-8.1	-0.8	2.1
C/C=C/c1ccc2c(c1)O[C@H](CN(C)Cc1cncnc1)[C@H](C)CN([C@@H](C)CO)S2(=O)=O	-2.9	-4.4	-2.2	-4.2
CC(C)NC(=O)Nc1cccc2c1O[C@@H](CN(C)S(=O)(=O)c1ccccc1)[C@@H](C)CN([C@@H](C)CO)C2=O	2.2	9.3	-0.2	-0.9
C[C@@H]1CCCCO[C@H](CN(C)S(=O)(=O)c2cccs2)[C@H](C)CN([C@H](C)CO)C(=O)c2cc(NC(=O)C3CCCCC3)ccc2O1	-0.6	-3.2	-2.7	1.5
CCCN1[C@@H]2Cn3c(ccc(-c4ccccc4)c3=O)[C@H]1[C@@H](C(=O)NCCCN1CCOCC1)[C@@H]2CO	4.1	3.0	-3.4	-0.9
C[C@@H]1CCCCO[C@@H](CN(C)C(=O)c2ccncc2)[C@@H](C)CN([C@H](C)CO)C(=O)c2cc(N(C)C)ccc2O1	12.6&3.0	11.5&4.5	1.6&-1.6	3.2
Cc1noc(C)c1S(=O)(=O)N(C)C[C@H]1Oc2ccc(NC(=O)NC(C)C)cc2CC(=O)N([C@H](C)CO)C[C@@H]1C	2.7	2.7	-3.9	1.1
CC(C)NC(=O)C1(C)CCCCN1Cc1ccc(OCc2ccccc2)cc1 (configuration not stated)	-50.0	-73.8	-15.2	-9.5

Looked up one by one from above, 3 records:
structure	rRNA inh HTS	rRNA inh HTS OD600	rRNA inh HTS RFP	AF4-AF9 inh
CCCC#Cc1cnc2c(c1)C(=O)N([C@H](C)CO)C[C@H](C)[C@H](CN(C)C(=O)c1ccc3c(c1)OCO3)O2	-1.4	3.6	2.0	-1.8
C[C@@H]1CCCCO[C@H](CN(C)C(=O)NC2CCCCC2)[C@@H](C)CN([C@H](C)CO)C(=O)c2cc(NC(=O)C3CCCCC3)ccc2O1	1.8	1.0	-0.6	0.8
C[C@H](CO)N1C[C@H](C)[C@H](CN(C)S(=O)(=O)c2ccc(F)cc2)Oc2ccc(NC(=O)Nc3ccccc3)cc2CC1=O	0.0	-4.3	2.0	0.6

(cont.)
structure	rRNA inh HTS	rRNA inh HTS OD600	rRNA inh HTS RFP	AF4-AF9 inh
COCc1cn(CC[C@H]2CC[C@@H](NC(=O)Nc3ccccc3)[C@H](CO)O2)nn1	-1.1	-0.8	-2.2	-2.3
C[C@H]1CN([C@@H](C)CO)C(=O)c2cc(C3=CCCCC3)cnc2O[C@H]1CN(C)C(=O)Cc1ccncc1	0.1	-7.0	-2.5	-6.3
CCNC(=O)C1(C)CCN(Cc2cccc(Oc3ccccc3)c2)C1 (configuration not stated)	2.6	0.4	-0.2	1.5
OC[C@H]1[C@H](c2ccc(-c3ccccc3F)cc2)[C@H]2CN(Cc3cccnc3)CCCCN21	1.7	-24.2	21.0	6.0
C[C@H]1CN([C@@H](C)CO)C(=O)c2cc(NC(=O)C3CCCCC3)ccc2O[C@H]1CN(C)C(=O)Nc1cccc2ccccc12	3.2	-1.0	2.7	-20.8
C[C@H](CO)N1C[C@H](C)[C@H](CN(C)Cc2ccncc2)Oc2cc(C3=CCCCC3)ccc2S1(=O)=O	-31.0	-51.7	30.1	11.4
O=C(C[C@H]1C[C@@H]2c3cc(NS(=O)(=O)c4ccc(F)cc4)ccc3O[C@@H]2[C@@H](CO)O1)NCc1ccccc1	-7.2	-27.0	5.8	2.2
C[C@@H](O)C#Cc1ccc([C@H]2[C@@H](CO)N3CCCCN(S(=O)(=O)c4ccccc4)C[C@@H]23)cc1	1.2	6.2	-2.9	-4.2
